Autofluor counter = counter-screen for toxin protease inhibitors: compound fluorescence; compound autofluorescence counterscreen, microsphere flow cytometry; hits give high values; fluorescence intensity (no concentration beside the values); 360,000 compounds, 3.1% hits; AID 624483;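 active means at least 3 SD above the mean of all compounds, about 16000 in these data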;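 further: 100 nL of 1 mM stock went into each well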
The depositor's hits bear a star. A portion of the library, so the mix of outcomes need not match the whole.

item	Structure	Autofluor counter
1	O=C(O)CSC1CC(=O)N(c2ccc(F)cc2)C1=O (stereo unspecified)	4048
2	C[C@@H]1CCCCO[C@@H](CN(C)Cc2ccc(C(F)(F)F)cc2)[C@@H](C)CN([C@H](C)CO)C(=O)c2cc(N(C)C)ccc2O1	3511
3	CCCCN1C(=O)C(CC(=O)NCc2cccs2)CC(C(=O)N(CC)CC)=C1C (stereo unspecified)	3389
4	CC(=O)Nc1ccc(CN2C(=O)C(C)ON=C2c2ccccc2-c2ccco2)cc1 (stereo unspecified)	4127
5	CN(Cc1cnn(-c2ccc(F)cc2)c1)C(=O)[C@H]1O[C@@H](n2ccc(N)nc2=O)[C@H](O)[C@@H]1O	5842
6	C[C@H]1CN([C@@H](C)CO)S(=O)(=O)c2ccc(C3=CCCC3)cc2O[C@@H]1CN(C)C(=O)C1CCCCC1	3012
7	Cc1cc(C)n2c(NC3CCCCC3)c(CC(C)C)nc2n1	5480
8	O=C(O)c1ccc(O)c2ncccc12	4534
9	CCOC1=C2[C@@H](CN(S(=O)(=O)c3ccc(C)cc3)[C@H]2c2ccccc2Cl)[C@H]2C(=O)N(C)C(=O)[C@H]2C1	5792
10	NS(=O)(=O)c1ccc(N2N=C(c3ccccc3)CC2c2ccc(Br)cc2)cc1 (stereo unspecified)	5106

Further structures
item	Structure	Autofluor counter
11	COC(=O)[C@]1(Sc2ccccc2)CC(=O)N[C@@H]1c1ccccc1	4833
12	O=C1OC(c2cccs2)Sc2ccccc21 (stereo unspecified)	6929
13	CCN1C(=O)[C@H]2[C@@H](c3ccc(C)cc3)N[C@]3(CCCN(CCC(C)C)C3=O)[C@H]2C1=O	3047
14	Cc1ccc(-c2ccc(CN3C(C)C(=O)N(Cc4cn(Cc5ccco5)nn4)CCS3(=O)=O)cc2)c(C)c1 (stereo unspecified)	5797
15	COc1ccccc1C(NC(=O)C1CCN(CCOc2ccccc2)CC1)c1ccccn1 (stereo unspecified)	3549
16	Cc1ccc(CN2CCNC(=O)C2CC(=O)NCCCn2nnc3ccccc32)cc1 (stereo unspecified)	4081
17	Cc1ccc2c(NCc3ccco3)nc(NC(C)C)nc2c1	6543
18	CC(C)NC(=O)c1cc(C2CCCCN2S(=O)(=O)c2ccc(F)cc2F)on1 (stereo unspecified)	4039
19	COCCNc1ncnc2c1ncn2[C@H]1CN(Cc2cc(OC)c(OC)c(OC)c2)C[C@@H](CO)O1	3468
20	CC(=O)c1cccc(-c2ccnc3c2CC(C(=O)NCC2CCOCC2)O3)c1 (stereo unspecified)	3526

Next entries follow:
item	Structure	Autofluor counter
21	COc1ccc2c(CN3CCN(c4ccccc4OC)CC3)cc(=O)oc2c1	5288
22	O=[N+]([O-])c1cccnc1Oc1cc(Cl)c(Cl)cc1Cl	3795
23	Cc1ccc(C(O)c2ncc(-c3ccc(Cl)cc3)[nH]2)cc1F (stereo unspecified)	3663
24	CCCCNc1nccnc1-c1cccc(C=O)c1	3971
25	COc1cc(Cl)c(C)cc1NC(=O)CN1CCN(C(=O)c2cccs2)CC1	3757
26	Cc1ccc2c(Cl)c(C(=O)NCCCN3CCOCC3)sc2c1	4050
27	O=C1O[C@@H](c2ccccc2)C[C@@H](O)[C@H](O)CCCCc2ccccc21	6326
28	C=CCNc1nc2cc(-c3ccccc3OC)sc2c(=O)n1C	3546
29	C[C@H]1CN([C@@H](C)CO)S(=O)(=O)c2ccc(C#Cc3cccnc3)cc2O[C@@H]1CN(C)C(=O)Nc1ccc2c(c1)OCO2	3198
30	C=C1C(=O)OC2CC1C(OC(C)=O)CC(C)=CCCC(C)=CCCC2(C)O (stereo unspecified)	4200

Single entries from above:
Result for #22 in Autofluor counter: 3795
Result for #21 in Autofluor counter: 5288
Result for #25 in Autofluor counter: 3757
Result for #27 in Autofluor counter: 6326

The listing continues.
item	Structure	Autofluor counter
31	O=C(c1cccs1)N1C[C@H](O)[C@@H](n2cc(C3CC3)nn2)C[C@@H]1c1ccccc1	3830
32	Clc1cccc(Cc2c(C3CCCCC3)nc3c4ccccc4ccn23)c1	6619
33	c1ccc(Cn2nnc3c(NCC4CC4)ncnc32)cc1	3501
34	Cc1cccc(-n2cnc3cc(C(=O)NCCN4CCOCC4)ccc32)c1	4089
35	COCc1cccc(-c2csc(C(C)(NC(C)=O)c3ccc(OC)cc3)n2)c1 (stereo unspecified)	3554
36	CC(C)C[C@@H]1CN(CCCC[C@H]2CNC(=O)C(=O)N2CCC2CCCCC2)C(=O)C(=O)N1CC1CCCCC1	5421
37	O=C(Nc1ccc(S(=O)(=O)N2CCCC2)cc1)C1CC(=O)N(CCc2ccccc2)C1 (stereo unspecified)	2999
38	Cc1cc2nc(-c3cccc(Br)c3)c(CC3CCCCC3)n2c(C)c1Br	7049
39	O=C(OC1CC2CC1[C@H]1CCCCN1C2=O)N1CCOCC1 (stereo partly specified)	5267
40	C[C@@H]1CCCCO[C@H](CN(C)C(=O)Cc2ccccc2)[C@@H](C)CN([C@H](C)CO)C(=O)c2cc(N(C)C)ccc2O1	3738

The list goes on; the last five above are carried over.
item	Structure	Autofluor counter
36	CC(C)C[C@@H]1CN(CCCC[C@H]2CNC(=O)C(=O)N2CCC2CCCCC2)C(=O)C(=O)N1CC1CCCCC1	5421
37	O=C(Nc1ccc(S(=O)(=O)N2CCCC2)cc1)C1CC(=O)N(CCc2ccccc2)C1 (stereo unspecified)	2999
38	Cc1cc2nc(-c3cccc(Br)c3)c(CC3CCCCC3)n2c(C)c1Br	7049
39	O=C(OC1CC2CC1[C@H]1CCCCN1C2=O)N1CCOCC1 (stereo partly specified)	5267
40	C[C@@H]1CCCCO[C@H](CN(C)C(=O)Cc2ccccc2)[C@@H](C)CN([C@H](C)CO)C(=O)c2cc(N(C)C)ccc2O1	3738
41	COc1ccc(OC)c(NC(=O)C2(C)CCN2C(=O)Cc2ccc(Cl)cc2Cl)c1 (stereo unspecified)	3446
42	C[C@H]1CN([C@@H](C)CO)C(=O)CCCn2nncc2CO[C@@H]1CN(C)C(=O)Nc1ccc2c(c1)OCO2	2912
43	O=c1[nH]c2ccccc2n1C1CCN(C(c2ccccc2)c2nnnn2-c2ccc3c(c2)OCCO3)CC1 (stereo unspecified)	6129
44	Cc1ccc(Cc2c(-c3ccccc3)nc3c(Cl)cc(C(F)(F)F)cn23)cc1	4801
45	CC1=C(C)CN2CC(C#N)=C(N)C2C1 (stereo unspecified)	6058
46	CC(=O)Oc1ccc(OC(C)=O)c2c1CC1(C)OC1(C)C2 (stereo unspecified)	3582
47	CN(C)CCNc1ncnc2c1ncn2[C@H]1CN(Cc2ccc(-c3ccccc3)cc2)C[C@@H](CO)O1	3580
48	CCOc1ccc(N(CC(=O)Nc2c(C)cc(C)cc2C)C2=NC3CS(=O)(=O)CC3S2)cc1 (stereo unspecified)	5805
49	O=C(NCC1CC1)c1csc([C@@H]2O[C@H](CO)[C@H](O)[C@H](O)[C@H]2O)n1	3932
50	C=C(C)Cn1c2ccc(NC(=O)CCc3cccnc3)cc2c(=O)n1C	2826

Other compounds
item	Structure	Autofluor counter
51	CCNC(=O)C1(C)CCN(C(=O)c2ccc(-c3ccccc3)cc2)C1 (stereo unspecified)	3949
52	CCCCNC(=O)c1cc2nc(-c3ccc(OC)cc3)cc(C(F)(F)F)n2n1	2960
53	COc1ccc(NC(=O)C2Cc3c(-c4ccc(Cl)cc4)ccnc3O2)cc1OC (stereo unspecified)	3575
54	Cc1ccc(C(=O)Nc2nnc(COCCO)s2)cc1	2887
55	CC(C)(C)c1ccc(S(=O)(=O)NCCN2CCOCC2)cc1	3966
56	COc1ccc(CC(N)c2csc(Nc3cccc(OC)n3)n2)cc1 (stereo unspecified)	3385
57	C[C@@H]1CN([C@H](C)CO)C(=O)CCCn2cc(nn2)CO[C@H]1CN(C)C(=O)Nc1ccc(C(F)(F)F)cc1	3339
58	CC(C)C[C@H]1CNC(=S)N1C[C@H]1CCCN1C[C@H](Cc1ccc(O)cc1)N1C[C@H](CC(C)C)N(CCc2ccccc2)C1=S	6088
59	CC(C)C[C@H]1CN([C@@H](Cc2ccc(O)cc2)CN2CCCC2CN2C(=S)NC[C@@H]2Cc2ccccc2)C(=S)N1CC1CCCCC1 (stereo partly specified)	6247
60	COc1ccc(-c2csc(NC(=O)CS(=O)(=O)c3ccccc3)n2)c(OC)c1	4001

Reprinted from the listing for reference:
item	Structure	Autofluor counter
56	COc1ccc(CC(N)c2csc(Nc3cccc(OC)n3)n2)cc1 (stereo unspecified)	3385
57	C[C@@H]1CN([C@H](C)CO)C(=O)CCCn2cc(nn2)CO[C@H]1CN(C)C(=O)Nc1ccc(C(F)(F)F)cc1	3339

Going on with the list:
item	Structure	Autofluor counter
61	COc1ccc(Cc2c(C3CCCCC3)nc3ccc(Br)cn23)c(C)c1	5063
62	OC(c1ccc2ccccc2c1)c1ncc(-c2ccc(C(F)(F)F)cc2)[nH]1 (stereo unspecified)	3997
63	CCOC(=O)c1ccc(NC(=O)c2nc[nH]c2C(=O)N(C)CCO)cc1	3414
64	CC1(C(=O)NS(=O)(=O)c2ccc(F)cc2F)CCN1C(=O)c1ccccc1CCc1ccccc1 (stereo unspecified)	3891
65	COc1ccc(CN2CCC[C@]3(N[C@H](c4ccc(C)cc4)[C@@H]4C(=O)N(C)C(=O)[C@@H]43)C2=O)cc1	3333
66	CCc1nc2ccc(C(=O)NCCCn3ccnc3)cn2c1N(CC)CCOC	3583
67	COc1ccc(-c2oc3c(c2C#CC2(O)CCCCC2)C(OC)CCC3)cc1 (stereo unspecified)	5903
68	COc1ccc(-c2nc3ccc(Br)cn3c2Cc2ccsc2)cc1OC	4255
69	COc1ccc([C@H]2N[C@]3(CCCN(Cc4cccn4C)C3=O)[C@H]3C(=O)N(C)C(=O)[C@@H]23)cc1	3718
70	Cc1ccc(S(=O)(=O)NN=Cc2ccco2)cc1	3455

Continuation:
item	Structure	Autofluor counter
71	COc1cccc(-c2cnc3c(NC=O)cc(-c4cc(C)c(O)c(C)c4)cn23)c1	3973
72	COc1ccc(/C=C/C(=O)OCC(=O)N2c3ccccc3CC2C)cc1 (stereo unspecified)	4346
73	COc1ccc(CN2C(=O)C(CC(=O)NCc3ccco3)CC(C(=O)N3CCOCC3)=C2C)cc1 (stereo unspecified)	2838
74	O=C(Nc1ccc(F)cc1)c1cnccn1	3114
75	COc1ccccc1CNc1nc(NCc2cnc(C)cn2)c2sccc2n1	3572
76	Cc1c(C(=O)NCc2ccccc2C(F)(F)F)sc(=O)n1Cc1ccc(F)cc1	5462
77	CC(=O)Nc1ccc(CC(=O)Nc2ccc3c(c2)OC2(CCCC2)O3)cc1	3667
78	NC(=O)C(NN=C(c1ccccc1)c1ccccc1)c1ccccc1 (stereo unspecified)	3311
79	COc1ccc(CN(C)C[C@@H]2OCCCC[C@H](C)Oc3ccc(NC(=O)Cc4ccccc4)cc3C(=O)N([C@@H](C)CO)C[C@@H]2C)cc1	3065
80	Cc1ccc(/C(N)=N/OC(=O)COc2cccc3ccccc23)cc1	3522

Next part.
item	Structure	Autofluor counter
81	O=C(NCC1CC1)c1cc2c(c(-c3cccc(-c4ccccc4F)c3)n1)[C@H](CCO)N(C(=O)CC1CC1)C2	4560
82	O=C(CCNC(=O)N1CC(=O)Nc2ccccc21)NCc1ccc(Cl)cc1	3676
83	Cn1c(=O)c2c(-c3ccccc3)n(-c3cccc(Br)c3)cc2n(C)c1=O	5540
84	Cc1ccc(CNc2nc(NCC3CC3)nc3ccsc23)c(C)c1	3603
85	CC(C)(C)S(=O)N1Cc2cc(C(=O)NCc3ccc(Oc4ccccc4)cc3)nc(-c3cccc(-c4cc5ccccc5o4)c3)c2[C@H]1CCO (stereo partly specified)	5828
86	COc1ccc(CN2C(=O)C(CC(=O)NCCN3CCOCC3)CC(C(=O)N3CCOCC3)=C2C)cc1 (stereo unspecified)	3795
87	CCOC(=O)c1ccc(NC(=O)[C@@H]2CCC(=O)N2C2OC(=O)c3c2ccc(OC)c3OC)cc1 (stereo partly specified)	3790
88	COc1cc(-c2cc(NC(C)=O)c3ncc(-c4ccc(F)cc4)n3c2)cc(OC)c1OC	3802
89	COc1ccc(NC(=O)c2cccc(S(=O)(=O)N3CCc4ccccc43)c2)c(OC)c1	3772
90	CC(=O)Nc1cccc(-c2ccnc3c2CC(C)(C(=O)NCc2ccncc2)O3)c1 (stereo unspecified)	3864

The listing continues.
item	Structure	Autofluor counter
91	O=C(Nc1cccc2[nH]c([C@H]3C[C@H](O)[C@@H](CO)O3)nc12)NC(c1ccccc1)c1ccccc1	6540
92	CCCCn1c(OC(=S)N(CC)CC)cc(C)nc1=S	5335
93	O=C(NC(=S)N1CC=CCC1)c1ccccc1	2864
94	CCCOc1ccc(F)cc1-c1cc(C(=O)NCc2cc(C(F)(F)F)cc(C(F)(F)F)c2)[nH]n1	3522
95	COc1c(C)cc(C(O)c2ncc(-c3cccc(F)c3)[nH]2)cc1C (stereo unspecified)	2932
96	CCCS(=O)(=O)NC(=O)C1(C)CCCN(C(=O)C(C)(C)Oc2ccc(Cl)cc2)C1 (stereo unspecified)	3252
97	COc1ccc(-n2nnnc2C(C2CC2)N2CCN(C/C=C/c3ccccc3)CC2)cc1 (stereo unspecified)	4259
98	CCCCOCCCNC(=O)C[C@@H]1C[C@@]2(C(=O)OC)CCCCC=C2N(Cc2ccccc2)C1=O	6920
99	O=C(CSc1ccccc1)NC1CC1	4302
100	COc1ccc(Cl)cc1CN1C(=O)C(Cc2ccccc2)ON=C1C (stereo unspecified)	4484

(list continues)
item	Structure	Autofluor counter
101	C[C@@H]1CN([C@@H](C)CO)S(=O)(=O)c2ccc(C#Cc3cccc(F)c3)cc2O[C@H]1CN(C)S(=O)(=O)c1cn(C)cn1	3601
102	NC(=O)/C(=C\c1ccco1)NC(=O)c1ccco1	3807
103	Cn1ccnc1CC(C)(O)c1ccccc1 (stereo unspecified)	3621
104	COc1ccc(C(C)=O)cc1Cn1c(C)c(C(=O)NCC(C)C)sc1=O	5582
105	COc1ccc([C@H]2C[C@H](n3cc(COC(=O)c4ccccc4)nn3)[C@@H](O)CN2C(=O)C2CCCCC2)cc1	2904
106	C[C@H](CO)N1C[C@H](C)[C@@H](CN(C)Cc2ccc(F)cc2)Oc2ncc(Br)cc2C1=O	3982
107	COc1ccc(CNC(=O)C2Cc3c(-c4ccc5c(c4)OCO5)ccnc3O2)cc1OC (stereo unspecified)	3799
108	Cc1ccc(NC(=O)Nc2nnc([C@H]3C[C@H](O)[C@@H](CO)O3)s2)cc1	3501
109	Cc1nc2c(OCc3ccc(F)cc3)cccn2c1N(C)C(=O)CCC1CCCC1	3388
110	CCc1ccc(CN(C)Cc2c(C(=O)N3CCOCC3)nc3c(C)cccn23)nc1	4245
